Sa growth 42C: S. aureus growth inhibition at 42 and 30 °C, primary screen, LtaS inhibitor project, RN4220, two temperatures | OD600, 20 h, 42 °C; hits give low values | relative growth, % (concentration not given with the values) | 0.53% of 170,000 active;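 active = growth at 42 °C up to 50% and 20 or more points under that at 30 °C, or under 10% at both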;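 also: 300 nL library stock went into each well; scaled to the means of positive and negative controls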
GIV-Gai inh: inhibitors of GIV peptide binding to Galpha-i3, primary screen, biochemical, fluorescence polarization, FITC-GIV GBA peptide, rat Galphai3. AID 1224905, 2016. 0.42% of 210,000 active. percent of control (FP), % (concentration not given with the values). 90 min; hits give low values; scaled: aluminum fluoride 0%, vehicle 100%;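 active = replicate mean at 85% of control or lower, very high polarization wells dropped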;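 also: wells of about 15 µL received 100 nL stock; the first replicate is given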
Target sequence (P08753 whole entry, looked up): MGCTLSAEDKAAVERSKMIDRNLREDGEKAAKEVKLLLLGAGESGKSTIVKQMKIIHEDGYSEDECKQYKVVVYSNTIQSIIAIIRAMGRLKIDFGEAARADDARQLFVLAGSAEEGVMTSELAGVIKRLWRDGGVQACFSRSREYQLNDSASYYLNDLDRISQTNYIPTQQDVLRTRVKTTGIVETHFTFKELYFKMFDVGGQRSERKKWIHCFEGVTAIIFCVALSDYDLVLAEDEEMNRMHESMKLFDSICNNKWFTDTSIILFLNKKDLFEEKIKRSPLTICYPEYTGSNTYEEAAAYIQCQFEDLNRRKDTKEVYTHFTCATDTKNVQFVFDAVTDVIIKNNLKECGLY
HCMV NEC inh: inhibitors of HCMV UL50-UL53 interaction, biochemical, HTRF; HCMV UL50-UL53 nuclear egress complex (human cytomegalovirus); normalized percent inhibition; AID 1918969, 2023; inhibition, % (concentration not given with the values); 0.15% of 190,000 active;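 active = both replicates at 50% or more, plus weaker picks with an unusually low signal ratio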;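 also: stock transfer was 100 nL into about 20 µL; 0% = negative control wells and 100% = wells with untagged competitor protein; inactives centre near -12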
Sa growth 42C second temp: second read-out of Sa growth 42C, no call of its own (marks repeat the call); relative growth, %; measured here: growth at 30 °C;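 optical density after 20 h as mean of two plates; 100% = untreated growth and lower means inhibition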
Numbers without * were called inactive; . = no result given; & = joins results of further samples. This is a random part of the collection. About 0.83% of those tested had a hit in this group.

SMILES	Sa growth 42C	Sa growth 42C second temp	GIV-Gai inh	HCMV NEC inh
O=C(c1nn2c(c1Cl)NC(c1cccs1)CC2C(F)(F)F)N1CCN(Cc2ccccc2)CC1 (stereo not given)	.	.	91	-11
CCN(CC)CCNC(=O)Cn1cnc2sc(C)c(S(=O)(=O)N3CCC(C)CC3)c2c1=O	86	88	97	-12
COC(=O)/C=C\c1cc(Br)ccc1C#N	129	100	103	-27
O=C(O)C1C2CCC(C2)C1C(=O)NCc1ccc2c(c1)OCO2 (stereo not given)	118	101	104	-38
CCn1cc(C(=O)NCc2ccc(Cl)cc2)c(=O)c2cc(S(=O)(=O)N(C)C3CCCCC3)ccc21	101	92	98	-29
COc1cc(NC(=O)CN(c2cc(C)cc(C)c2)S(=O)(=O)c2c(C)[nH]c(=O)[nH]c2=O)cc(OC)c1	102	82	106	-15
CC(C)CNC(=O)CC1Sc2ccc(C(F)(F)F)cc2NC1=O (stereo not given)	111	96	110	-4
Cn1cnnc1SCc1ccc(-c2csnn2)cc1	97	89	103	-19
O=C(NC(CO)CO)OCC1c2ccccc2-c2ccccc21	90	93	100	-161
Cc1ccc(-n2nc(C)c3c(C)c(CCC(=O)N4CCCC4)c(C)nc32)cc1	101	86	102	2
CNC(=O)c1c(NC(=O)c2cc(=O)c3cc(C)c(C)cc3o2)sc2c1CCCC2	100	85	105	-2
CSc1ncccc1C(=O)OC1CCCCC1=O (stereo not given)	92	94	.	-38
Cn1ccnc1C(O)(CC(=O)O)C(F)(F)F (stereo not given)	102	93	.	-22
N#C/C(=C\Nc1ccc(F)cc1)S(=O)(=O)c1nc2ccccc2s1	102	83	102	-6
Cc1cc(-n2nnc(C(=O)OCc3ccccc3C)c2C)ccc1Br	.	.	102	1
O=C(CCC1N=C2c3ccccc3N=C(SCc3ccc(Cl)cc3)N2C1=O)N1CCN(c2ccccc2)CC1 (stereo not given)	98	84	101	-19
C(#CC(N1CCOCC1)N1CCOCC1)C1CC1	91	88	.	-19
COc1ccc(NC(=O)C2CCN(S(=O)(=O)c3cc(C(=O)N4CCCC4)cs3)CC2)cc1	.	.	110	-17
CC1CN(C(=O)CCC(=O)NCCc2ccc(S(N)(=O)=O)cc2)c2ccccc2O1 (stereo not given)	.	.	102	-5
Cc1ccc2nc(SCc3c(C(=O)O)nnn3-c3nonc3N)[nH]c2c1	101	90	103	-9
CC(C)Oc1ccc(C2CC(=O)N(Nc3ccccc3)C2=O)cc1 (stereo not given)	92	80	94	-33
O=C(c1ccc(F)cc1)N1CCN(c2nc3ccccc3n3cccc23)CC1	.	.	100	-14
O=C(Nc1ccc(-c2cn3ccccc3n2)cc1)c1cc2cc(Br)ccc2oc1=O	.	.	101	-6
Cc1cc2c(cc(C(=O)N3CCC(C(=O)NC4CCCC4)CC3)n2Cc2c(F)cccc2Cl)o1	97	90	103	-1
Cn1nc(C(F)(F)F)cc1-c1ccc(S(N)(=O)=O)s1	102	97	107	-23

Individual results from above:
`O=C(c1nn2c(c1Cl)NC(c1cccs1)CC2C(F)(F)F)N1CCN(Cc2ccccc2)CC1` (stereo not given) | HCMV NEC inh = -11
`Cc1cc(-n2nnc(C(=O)OCc3ccccc3C)c2C)ccc1Br` | GIV-Gai inh = 102

(listing goes on)
SMILES	Sa growth 42C	Sa growth 42C second temp	GIV-Gai inh	HCMV NEC inh
COc1ccc(S(=O)(=O)c2cn(Cc3ccccc3)c3cc(F)c(F)cc3c2=O)cc1	113	88	104	-40
CCc1ccc(CN(Cc2cn[nH]c2-c2ccc(OC)cc2)C(=O)Nc2ccc(Br)cc2)cc1	91	86	106	2
COc1ccc(CCNC(=O)CSc2nc(-c3ccc(F)cc3)cc(C(F)(F)F)n2)cc1OC	108	105	105	0
O=C(CSc1nnc(C2COc3ccccc3O2)o1)Nc1ccc(F)cc1Cl (stereo not given)	106	94	.	-16
COc1ccc(C(=O)OCc2cc(=O)n3nc(C4CC4)sc3n2)cc1OC	90	94	101	.
O=C(Nc1cccc(C(F)(F)F)c1)C1CCN(S(=O)(=O)c2cccc3nsnc23)CC1	114	81	102	-30
Nc1c(C(=O)Nc2ccccc2F)sc2nc3c(cc12)CCCCCC3	106	88	105	-50
OCc1nc2ccccc2n1CN1CCOCC1	99	93	.	-35
O=C(COc1ncnc2c1cnn2-c1ccccc1)c1ccc(Cl)s1	102	94	.	2
O=C(OCC(=O)c1c[nH]c2ccccc12)c1ccc2c(c1)OCCO2	109	95	.	-4
COc1ccc(NC(=O)Cn2cc(C(=O)c3ccncc3)c(=O)c3cc(C)ccc32)cc1Cl	105	70	109	.
COc1ccc(N2C(N)=C(C#N)C(c3cc(CN4CCOCC4)cs3)C3=C2CCCC3=O)cc1 (stereo not given)	117	89	106	.
Cc1ccc(CNC(=O)Cn2c(=O)n(-c3ccc(Cl)cc3)c(=O)c3c(C)c(C)sc32)cc1	103	93	101	-7
CCCc1cnc2c(c1SCC(=O)NCc1ccc(F)cc1)c(=O)n(C)c(=O)n2C	107	95	104	4
Cc1ncsc1CCOC(=O)c1ccccc1	130	82	.	-27
COc1ccccc1NC(=O)CSc1oc(-c2cccs2)nc1S(=O)(=O)c1ccc(C)cc1	97	91	104	-3
O=c1c(Cl)c(Nc2cccc(Cl)c2)cnn1-c1nc2ccccc2s1	101	81	101	-27
O=C(CN1CCCC1)Nc1nc(-c2ccc3c(c2)CCN3C(=O)C2CC2)cs1	99	68	106	-10
CC(C)n1c(C(F)(F)F)nc2cc(C(=O)NCc3ccncc3)ccc21	94	90	96	-15
CCOc1ccc(N2C(=O)/C(=C/c3ccc(F)cc3)N=C2SC(CC)C(=O)N2CCOCC2)cc1 (stereo not given)	112	87	107	.
O=C(O)c1cnn(-c2nc(-c3ccccc3)cs2)c1C(F)(F)F	.	.	104	2
CCC(C)Nc1cc(C)c(C#N)c2nc3ccccc3n12 (stereo not given)	100	81	108	.
CC1=C(C(=O)Nc2c(C)cc(C)cc2C)C2(CCN(C(C)C)CC2)OC1=O	108	100	106	.
COc1ccc(C2=CC(C3CC3)=C(C#N)C(=C(C#N)C#N)N2)cc1	117	93	65*	-65
CC1CCN(CCCNC(=O)c2n[nH]c(=O)c3ccccc23)CC1	89	87	103	-5
The listing continues.
SMILES	Sa growth 42C	Sa growth 42C second temp	GIV-Gai inh	HCMV NEC inh
COC(=O)c1c(-c2ccc(Cl)cc2)noc1Nc1ccc2c(c1)OCCO2	.	.	97	-25
O=C(COC(=O)c1ccc(-c2ccccc2)cc1)Nc1ccc(F)cc1	90	88	.	-13
CCC(=O)N1c2ccccc2CC1C(=O)NCCN1CCN(c2cccc(Cl)c2)CC1 (stereo not given)	84	81	101	.
O=C(NCc1ccccc1)C(=O)NCC(c1ccc2c(c1)OCO2)N1CCOCC1 (stereo not given)	103	87	96	.
CCn1c2c(c3cc(C4CCCCC4)ccc31)CCCC2=O	110	80	101&102	20
COc1ccc(-c2nc3c(C#N)c[nH]n3c2NC2CCCC2)c(OC)c1	122	90	101	-13
O=C(Cn1cnc2nc3c(cc2c1=O)CCCC3)Nc1ccc(F)c(Cl)c1	.	.	107	-15
CC(=O)c1c(C)n(S(=O)(=O)c2ccc(Cl)cc2)c2ccc(NS(=O)(=O)c3ccc(Cl)cc3)cc12	95	82	103	-40
N=c1c2c(-c3ccccc3)c(-c3ccccc3)n(Cc3ccco3)c2ncn1CCN1CCOCC1	77	83	104	-1
CCC(C)NC(=O)/C(=C/c1ccc(F)cc1)c1cccs1 (stereo not given)	97	100	.	4
CCOC(=O)c1cccc(NC(=O)CN2C(=O)c3ccccc3Sc3ncccc32)c1	103	112	104	.
Cc1cc(C)cc(NC(=O)Cn2ncc3c2-c2ccccc2OC3)c1	.	.	96	-28
CCCCN(C)CCNC(=O)CN1C(=O)CSc2ccc(S(=O)(=O)N3CCCCC3)cc21	103	99	110	.
Cc1[nH]nc2c1C1(C(=O)N(C)c3ccccc31)C(C#N)=C(N)O2 (stereo not given)	61	30	98	-23
Cc1cc(C)nc(NC(c2ccc(F)cc2)c2cc(C)sc2NC(=O)c2ccccc2)n1 (stereo not given)	.	.	112	18
O=C1C=C(Nc2ccc3c(c2)OCO3)CC2(CCCCC2)C1	92	79	.	-28
O=C(Nc1nc2ccccc2n1Cc1ccc(Cl)cc1)c1ccccc1	.	.	108	-3
CCCC(=O)c1cc(-c2nc3ccccc3n2C)n(C)c1	105	91	107	-7
O=C(c1cc2ccccc2c(=O)s1)N1CCc2ccccc2C1	.	.	105	-50
COc1ccccc1C(=O)Nc1nnc(S(=O)(=O)N2CCCCC2)s1	92	80	106	-18
Cc1ccc(NC(=O)CSC(C)C(=O)O)cc1 (stereo not given)	99	96	.	-7
CC1(C)CC(=O)C/C(=N\NC(=O)CCC(=O)Nc2ccccc2)C1	113	102	107	-2
CC1=C(C#N)c2nc(N)c(C#N)c(C)c2/C1=C\c1ccc(-c2ccc(C(=O)O)cc2)o1	.	.	107	-24
O=C(NCc1ccccc1)c1nc[nH]c1C(=O)NCc1ccccc1	88	106	95	-11
COc1cccc(CC(=O)Nc2cccc(OC)c2)c1	74	96	.	-24

Exported in markdown: part of the list above.
| SMILES | Sa growth 42C | Sa growth 42C second temp | GIV-Gai inh | HCMV NEC inh |
| --- | --- | --- | --- | --- |
| CCn1c2c(c3cc(C4CCCCC4)ccc31)CCCC2=O | 110 | 80 | 101&102 | 20 |
| O=C(CN1CCCC1)Nc1nc(-c2ccc3c(c2)CCN3C(=O)C2CC2)cs1 | 99 | 68 | 106 | -10 |
| Cc1ccc(NC(=O)CSC(C)C(=O)O)cc1 (stereo not given) | 99 | 96 | . | -7 |
| CC(C)Oc1ccc(C2CC(=O)N(Nc3ccccc3)C2=O)cc1 (stereo not given) | 92 | 80 | 94 | -33 |
| Cc1ccc(CNC(=O)Cn2c(=O)n(-c3ccc(Cl)cc3)c(=O)c3c(C)c(C)sc32)cc1 | 103 | 93 | 101 | -7 |
| Cc1cc(C)cc(NC(=O)Cn2ncc3c2-c2ccccc2OC3)c1 | . | . | 96 | -28 |
| CNC(=O)c1c(NC(=O)c2cc(=O)c3cc(C)c(C)cc3o2)sc2c1CCCC2 | 100 | 85 | 105 | -2 |

Next part
SMILES	Sa growth 42C	Sa growth 42C second temp	GIV-Gai inh	HCMV NEC inh
CCOC(=O)c1c(N)sc2c1CCCS2	94	89	.	-8
Cc1ccc(CN2COc3ccc4c(C)cc(=O)oc4c3C2)cc1	92	84	105	.
COc1ccccc1/C=C/C=NN1CCN(Cc2ccccc2)CC1	97	90	98	-6
CN(Cc1cccs1)C(=O)C1CC(=O)N(c2ccc3c(c2)OCCO3)C1 (stereo not given)	77	88	.	-21
CCSc1nnc2c(n1)OC(c1sccc1C)N(C(C)=O)c1ccccc1-2 (stereo not given)	110	84	106&105	-109&-90
Cc1ccc(Cl)cc1N1CCN(C(=O)c2cccc(-n3nnc4cccnc43)c2C)CC1	.	.	119	-18
COc1ccc(NC(=O)CN(C)S(=O)(=O)c2cnc[nH]2)cc1	101	83	105	-22
CCOC(=O)c1c(C)[nH]c(C(=O)CN2C(=O)CCC2=O)c1C	91	90	.	-23
COc1ccc(C2=NN(C(=O)c3cccs3)C(c3ccccc3Cl)C2)cc1OC (stereo not given)	.	.	102	-11
Cc1ccc(C(=O)CSc2nc(-c3ccccc3)nc3c2CCCC3)c(C)c1	110	90	110	-27
CCOC(=O)C1=C(C)NC(SC)=C(C#N)C1c1ccccc1 (stereo not given)	.	.	105	-12
Cc1nnsc1C(=O)N1CCC(C(=O)c2ccccc2)CC1	105	90	99	-2
O=C(NC1CCCC1)c1cnn2c(C(F)(F)F)cc(-c3ccc(Br)cc3)nc12	.	.	101	1
CCCN(Cc1cccs1)C(=O)Nc1ccc(OCC)cc1	97	94	100	-14
Cc1c(-c2nnnn2-c2ccc(F)cc2)cnc2cc3c(cc12)OCO3	102	98	99	27
O=C(C1COc2ccccc2O1)N(Cc1cccnc1)c1nc2c(F)cc(F)cc2s1 (stereo not given)	121	92	102	.
CC(C)(C)OC(=O)N1CCC(c2c(C(=O)N3CCN(C(=O)c4ccco4)CC3)cnn2-c2ccc(F)cc2F)CC1	101	100	111	.
O=C(CSc1ncccn1)N/N=C/c1ccc2c(c1)OCO2	97	102	109	19
CCOC(=O)CCc1ccc2c(c1)NC(c1ccc(N(C)C)cc1)O2 (stereo not given)	96	97	104	.
COC(=O)c1cc2nc3c(c(C(F)(F)F)n2n1)CCc1ccccc1-3	94	86	104	-32
CCOc1ccc(CNC(=O)c2nn(-c3ccc(OC)cc3)c(=O)c3c2c2ccccc2n3C)cc1	95	98	102	5
O=C(O)C1Cc2ccccc2O1 (stereo not given)	98	99	.	-16
Cc1noc(C)c1COc1cccc(C(=O)N2CCC(C(N)=O)CC2)c1	71	85	.	-12
CCOC(=O)c1c(NC(=O)CSc2cn(CCNC(=O)c3ccc(OC)c(OC)c3)c3ccccc23)sc2c1CCC2	111	90	101	-5
Fc1ccc(-c2nc3ncccc3o2)cc1	111	100	98	-6
Cc1ccccc1C1CC(=O)Nc2c1c(C)nn2-c1ccc2nncn2n1 (stereo not given)	.	.	102	-28
CCCOc1ccc(CN(CCC)C(=S)NC)cc1OC	100	90	.	-6
Fc1ccccc1C1=NC(c2ccc(C(F)(F)F)cc2)=Nc2ccccc2N1	119	90	99	-18
